Screening results (PubChem)
UCH37 DUB inh: human UCH37 deubiquitinating enzyme inhibition; inhibition, % (no concentration beside the values); hit rate 0.33% among 330,000; purified proteasome/UCH37, Ub-AMC cleavage fluorescence; Q9Y5K5; AID 588478;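 active = mean of two replicates above 20%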;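 note: 0% = compound-free wells with enzyme and 100% = wells lacking proteasome; stock transfer was 100 nL into about 20 µL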
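assay system = human UCH37 enzyme supplied as purified proteasome complex | amount = proteasome at 0.15 nM in the dispensed enzyme solution | schedule = 30 min compound-proteasome preincubation then 25 min substrate reaction, room temperature | measured by = fluorescence, ex 355 nm, em 460 nm | benchmarks = no-proteasome wells (full inhibition) and compound-free wells (no inhibition)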
Ecoli growth: inhibitors of Escherichia coli growth | OD600, 23 h; active compounds read low | OD600 absorbance (test concentration not listed) | hit rate 0.21% among 330,000 | AID 1053175;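 active = OD600 absorbance below the run mean of sample wells minus 3.6 SD, in any replicate, cut at about 0.56 in these data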;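 note: stock transfer was 300 nL into about 60 µL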
LANA-H2A inh: blocks KSHV LANA binding to histone H2A/H2B; cell-free LANA-H2A/H2B peptide, fluorescence polarization; inhibition, % (test concentration not listed); hit rate 0.6% among 320,000; in the data active = inhibition mostly above about 10%, no sharp cut-off; inactive = mostly below about 6.7%;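 note: stock transfer was 7.5 nL into about 10 µL; 0% = median of vehicle wells and 100% = median of positive control wells; one replicate is shown; the record names a cut of 25% in any replicate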
FGF22 binding: shifts melting point of recombinant human FGF22; hit rate 1.5% among 340,000; recombinant FGF22 thermal shift, SYPRO orange fluorescence; percent of sucrose octasulfate shift, DMSO zero; Q9HCT0; calls only at 9.99 µM;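 active = melting point raised past a set limit in the mean and every replicate; three in four hits are not shown here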
Target sequence (Q9HCT0 whole entry, looked up): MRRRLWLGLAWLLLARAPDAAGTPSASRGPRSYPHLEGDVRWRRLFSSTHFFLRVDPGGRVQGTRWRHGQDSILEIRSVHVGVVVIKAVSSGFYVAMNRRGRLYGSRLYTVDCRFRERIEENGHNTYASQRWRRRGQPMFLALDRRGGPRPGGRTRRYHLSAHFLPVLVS
HNF4A DNA FP: change in binding of human HNF4 alpha to DNA. P41235. HNF4a-FITC DNA binding, fluorescence polarization, 1 h. activity change, % at 10 µM. hit rate 0.3% among 360,000; in the data active = activity change above about 30%, passing the limit was not always enough;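 note: controls were the assay level and a saturating level of protein; the project sought stronger binding though the title names inhibitors; some compounds called inactive have numbers as strong as hits; positive values seem to mean higher polarization but the record does not say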
Target sequence (P41235 whole entry, looked up): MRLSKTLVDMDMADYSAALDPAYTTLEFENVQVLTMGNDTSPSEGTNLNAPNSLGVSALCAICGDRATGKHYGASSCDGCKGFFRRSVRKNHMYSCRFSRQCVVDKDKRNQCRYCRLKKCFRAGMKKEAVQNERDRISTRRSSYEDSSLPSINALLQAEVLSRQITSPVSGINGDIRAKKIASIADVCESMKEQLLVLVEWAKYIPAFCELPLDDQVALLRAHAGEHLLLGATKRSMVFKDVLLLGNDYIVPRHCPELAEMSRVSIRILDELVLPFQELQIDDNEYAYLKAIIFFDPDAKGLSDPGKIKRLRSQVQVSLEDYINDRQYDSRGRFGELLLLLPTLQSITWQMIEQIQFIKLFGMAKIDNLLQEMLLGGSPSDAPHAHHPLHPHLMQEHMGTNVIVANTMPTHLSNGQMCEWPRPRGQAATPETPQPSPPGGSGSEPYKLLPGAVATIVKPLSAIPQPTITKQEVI
Beta2AR agonist: human beta-2 adrenergic receptor agonism by FAP; response, % (concentration not given with the values); Am2.2-beta2AR cells, FAP receptor internalization, flow cytometry; reference of the scale not given here; hit rate 0.43% among 340,000;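 active = response above a set limit, near 3 SD of response in nonfluorescent compounds, cut at about 42% in these data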;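 note: stock transfer was 100 nL into about 11 µL; a reference agonist was the positive control; negative values mostly stem from fluorescent compounds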
ALR inh: human ALR oxidase inhibition via reduced H2O2; purified ALR, DTT oxidation, H2O2 HRP-luminol luminescence; hit rate 3.8% among 290,000; inhibition, % (no concentration beside the values);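 active = mean and each replicate at 75% or more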;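 note: stock transfer was 7.5 nL into about 7.5 µL; 0% = neutral wells and 100% = wells with inactivated enzyme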
Target sequence (P55789 whole entry, looked up): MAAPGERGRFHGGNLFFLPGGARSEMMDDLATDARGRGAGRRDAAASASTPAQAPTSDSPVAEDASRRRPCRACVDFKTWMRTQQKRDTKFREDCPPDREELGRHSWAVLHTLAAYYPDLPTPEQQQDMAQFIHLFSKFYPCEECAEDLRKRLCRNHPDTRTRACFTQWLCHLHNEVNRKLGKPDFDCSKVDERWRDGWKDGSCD
* = called active by the depositor; i = inactive; x = no result given; & = joins results of further samples. Not all compounds are listed; the hit share may differ from the screen's.

SMILES	UCH37 DUB inh	Ecoli growth	LANA-H2A inh	FGF22 binding	HNF4A DNA FP	Beta2AR agonist	ALR inh
Oc1ccc(Cl)cc1Nc1nc(NCC2CCCO2)c2ccccc2n1 (stereo unspecified)	x	x	0.9	i	1.1	27	10
Cc1c(CCC(=O)N2CCC(C(=O)O)CC2)c(=O)oc2cc3oc4c(c3cc12)CCCC4	-30	0.71	2.3	i	4.9	-12	2
CCCCn1c(N)c(N(CCOC)C(=O)c2cc3c(s2)CCCCC3)c(=O)[nH]c1=O	0.2	0.67	0.5	i	3.1	2	x
COc1ccc(C2CC(c3ccc([N+](=O)[O-])cc3)=NN2C(=O)c2ccccc2)cc1OC (stereo unspecified)	7.3	0.71	1.3	i	-1.3	-16	-8
CNC(=S)N/N=C/c1ccccc1Cl	x	x	-3.2	x	-2.5	5	x
CCCCn1c(N)c(N(CC)C(=O)c2ccc(-c3ccc(Cl)cc3)o2)c(=O)[nH]c1=O	-15	0.66	-4.6	i	2.6	4	x
CCOC(=O)CC1=NC(=O)CS1	-5.5	0.73	-3.8	x	0.4	-9	9
CC(OC(=O)c1ccco1)C(=O)Nc1ncc(Cl)cc1Cl (stereo unspecified)	1.6	0.69	2.8	i	-2.5	0	1
CC1Oc2ccccc2N(CC(=O)NCc2cccs2)C1=O (stereo unspecified)	-1.8	0.69	-4.4	x	-2.3	-2	1
CCN(CC1CCCN(CCc2cccc(OC)c2)C1)C(=O)c1ccc(COC)o1 (stereo unspecified)	0.8	0.7	-2.2	i	0.7	-3	-2
CN(C)c1ccc(CN(C)C2CCCCC2)cc1	1.8	0.68	-1.0	x	-1.1	-4	38
Cc1occc1C(=O)Nc1cccc(C(=O)O)c1	0.7	0.74	2.9	x	-3.4	-1	6
COc1ccccc1N1CCN(C(=O)c2c(-c3c(Cl)cccc3Cl)noc2C)CC1	1.0	0.74	0.0	x	-1.2	3	15
O=C(CCN1CCC(c2ccc(Cl)s2)=N1)c1ccc(Cl)s1	1.8	0.65	-6.9	i	14	-7	6
CCOC(=O)c1c(C)[nH]c(C)c1C(=O)COC(=O)[C@@H]1CCCN1S(=O)(=O)c1ccc(Cl)cc1	3.2	0.71	-2.7	i	6.6	7	-3
CCOC(=O)c1sc(NC(=O)C2CC(=O)N(c3ccc(OC)cc3)C2)nc1C (stereo unspecified)	2.4	0.65	2.4	i	1.5	0	3
COC(=O)c1c(NC(=O)c2ccc(C)cc2)sc(Cc2ccccc2)c1C	-175	0.78	2.3	x	1.1	-5	-2
Nc1cc(=O)[nH]c(SCC(=O)Nc2cccc(S(=O)(=O)N3CCCCC3)c2)n1	0.9	0.64	0.2	i	6.8	1	44
CCOc1ccc(CNC(=O)c2nnc(CS(=O)(=O)c3ccccc3)o2)cc1OC	0.3	0.75	5.0	i	-0.1	5	-2
O=C1CSCC(=O)N1c1ccccc1	-3.2	0.73	4.1	x	-3.7	-2	-5
O=C(Nc1ccc(-c2nc3ncccc3o2)cc1)c1ccc([N+](=O)[O-])o1	x	x	-2.0	i	-6.8	53*	x
Cc1cc(=O)[nH]c(N/N=C2/CCCC/C2=C\c2ccccc2)n1	x	x	-3.2	i	2.2	5	3
Cc1ccc(C(=O)c2sc3nc4c(cc3c2N)CCC4)cc1	-12	0.76	-0.6	x	-3.4	-14	-33
COc1ccc(C(CNC(=O)C(C)Oc2ccc(Br)cc2)N2CCCC2)cc1 (stereo unspecified)	1.2	0.65	2.3	i	1.2	1	x
OCCC1CN(CC(c2ccccc2)c2ccccc2)CCN1C1CCCC1 (stereo unspecified)	1.5	0.68	4.4	i	-3.4	2	-6

Single records (already shown). Order of values: UCH37 DUB inh	Ecoli growth	LANA-H2A inh	FGF22 binding	HNF4A DNA FP	Beta2AR agonist	ALR inh
CCOC(=O)c1sc(NC(=O)C2CC(=O)N(c3ccc(OC)cc3)C2)nc1C (stereo unspecified) in the list: 2.4	0.65	2.4	i	1.5	0	3
CCOc1ccc(CNC(=O)c2nnc(CS(=O)(=O)c3ccccc3)o2)cc1OC in the list: 0.3	0.75	5.0	i	-0.1	5	-2
CCCCn1c(N)c(N(CC)C(=O)c2ccc(-c3ccc(Cl)cc3)o2)c(=O)[nH]c1=O in the list: -15	0.66	-4.6	i	2.6	4	x
O=C1CSCC(=O)N1c1ccccc1 in the list: -3.2	0.73	4.1	x	-3.7	-2	-5

4 compounds drawn at random from those above, as already listed:
SMILES	UCH37 DUB inh	Ecoli growth	LANA-H2A inh	FGF22 binding	HNF4A DNA FP	Beta2AR agonist	ALR inh
CNC(=S)N/N=C/c1ccccc1Cl	x	x	-3.2	x	-2.5	5	x
O=C(CCN1CCC(c2ccc(Cl)s2)=N1)c1ccc(Cl)s1	1.8	0.65	-6.9	i	14	-7	6
CCOc1ccc(CNC(=O)c2nnc(CS(=O)(=O)c3ccccc3)o2)cc1OC	0.3	0.75	5.0	i	-0.1	5	-2
CCOC(=O)c1sc(NC(=O)C2CC(=O)N(c3ccc(OC)cc3)C2)nc1C (stereo unspecified)	2.4	0.65	2.4	i	1.5	0	3

(next part)
SMILES	UCH37 DUB inh	Ecoli growth	LANA-H2A inh	FGF22 binding	HNF4A DNA FP	Beta2AR agonist	ALR inh
Cc1ccc(C2CCN(C(=S)NC(C)(C)C)C2)cc1 (stereo unspecified)	3.3	0.68	3.1	i	-3.7	10	4
CCOc1cc(CNc2ccc(Br)cc2)cc(Br)c1OCC(=O)NC(C)(C)C	2.1	0.71	-4.6	i	-6.2	0	-1
COc1ccc(C2=NS(=O)(=O)N(C)C(C(=O)NC(C)c3ccccc3)=C2)cc1 (stereo unspecified)	2.9	0.79	-1.3	i	-0.3	2	2
Cc1ccc2c(C)nc(Nc3nc(CSc4nnnn4-c4ccccc4)cc(=O)[nH]3)nc2c1	3.5	0.74	-1.4	x	14	-11	-2
COc1ccc(Nc2nnc(SCC3CCCO3)s2)cc1 (stereo unspecified)	5.4	0.72	1.4	i	1.7	3	-7
CC(=O)Nc1ccc(NC(=O)CCCc2ccccc2)cc1	0.3	0.62	0.9	x	-2.1	1	-1
O=C(NC(=S)Nc1ccc(CN2CCOCC2)cc1)c1ccc(-c2ccc(Br)cc2)o1	8.2	0.63	1.0	x	x	x	0
O=C(Nc1cccc(Cl)c1)C1CCCN(c2cnccn2)C1 (stereo unspecified)	-34	0.7	-12	i	-0.9	13	-6
CCOc1ccc(C(=O)CCC(=O)Nc2ccc(C)c(S(=O)(=O)N3CCCCC3)c2)cc1	2.7	0.67	x	i	1.0	2	x
Cc1c(C(=O)N(C)C)sc2nc(-c3ccccn3)[nH]c(=O)c12	-9.2	0.69	0.8	x	-2.4	-3	-8
COc1ccc(CCN2CC(C(=O)N(C)CCn3nc(C)cc3C)CCC2=O)cc1 (stereo unspecified)	0.8	0.71	3.8	i	-2.7	0	-12
O=C(CCS(=O)(=O)c1cccc2nonc12)N1CCN(c2ccc(F)cc2)CC1	2.4	0.7	4.1	x	-3.4	-7	54
COC(=O)c1c(NC(=S)NC(=O)c2ccco2)sc2c1CCCC2	3.6	0.73	-0.7	x	7.4	-2	0
COCCC(=O)N1CCC(Oc2ccc(C(=O)NC(C)CCn3cccn3)cc2)CC1 (stereo unspecified)	5.5	0.71	-25	i	-3.8	0	-12
Cc1ccccc1OCc1nc(-c2ccc(Br)o2)no1	1.3	0.69	-2.5	i	-1.7	0	x
Cc1ccc(-c2noc(C3CCN(C(=O)Nc4ccc(C#N)cc4)CC3)n2)o1	-1.0	0.69	-2.1	x	2.5	3	-3
COC(=O)CCc1nc2c(C#N)c(-c3ccc(Cl)cc3)ccn2n1	x	x	6.4	i	-7.1	-1	-4
COC(=O)c1ccc(C2/C(=C(/O)c3ccc(OC(C)C)cc3)C(=O)C(=O)N2c2cc(C)on2)cc1 (stereo unspecified)	7.9	0.7	2.2	x	-2.2	-5	7
COc1ccc([N+](=O)[O-])cc1N(CC(=O)NCCSc1ccc(C)cc1)S(C)(=O)=O	5.3	0.69	-1.1	i	0.8	7	-4
Cc1ccc(C(C)NC(=O)c2cc3ccccc3oc2=O)cc1C (stereo unspecified)	-0.6	0.66	-7.3	i	-3.5	0	-5
NC(=O)c1c(NC(=O)c2cccc(N3C(=O)CCC3=O)c2)sc2c1CCCCC2	-137	0.74	-0.7	i	1.9	0	10
N#C/C(=C\c1ccco1)C(=O)Nc1cccc2ncccc12	17	0.66	3.5	i	-1.2	1	-8
O=C1CCC(N2C(=O)c3ccccc3C2=O)C(=O)N1 (stereo unspecified)	0.5	0.69&0.68	2.4	i	-1.7	8	-1
O=C(N/N=C/C(Br)=C/c1ccccc1)c1cc(-c2ccco2)[nH]n1	x	x	-0.3	i	-0.6	-4	15
CCC(C)NC(=O)C1CCN(S(=O)(=O)N2CCC3(CC2)OCCO3)CC1 (stereo unspecified)	4.5	0.69	5.4	i	-1.9	2	0
Next results follow.
SMILES	UCH37 DUB inh	Ecoli growth	LANA-H2A inh	FGF22 binding	HNF4A DNA FP	Beta2AR agonist	ALR inh
CCOc1cc(/C=C2\SC(=S)N(C(C(=O)O)c3ccccc3)C2=O)ccc1O (stereo unspecified)	12	0.7	-3.8	x	25	-50	100*
CC1CC(C)CN(C(=O)COC(=O)c2ccc([N+](=O)[O-])o2)C1 (stereo unspecified)	13	0.62	5.0	i	-0.9	2	-20
Cc1ccccc1CSCC(=O)Nc1ccccc1F	3.2	0.73	-3.0	i	5.1	2	74
CCc1nnc(NC(=O)c2c(OC)cccc2OC)s1	-1.0	0.72	-3.3	x	4.4	0	-17
O=C(c1ccc(Cl)cc1)N1CCC2CC1c1cc(-c3ccccc3)ccc12 (stereo unspecified)	x	x	x	i	-8.4	-3	x
O=C(c1ccc2c(=O)n3c(nc2c1)CCCCC3)N1CCN(Cc2ccccc2)CC1	0.1	0.69	-3.6	x	0.0	-16	-1
COc1ccc(C(=O)Nc2cc3c4c(c2)CC(=O)N4CCC3)c(OC)c1	6.8	0.69	3.5	x	2.9	2	0
O=C(c1cc(-c2ccncc2)nc2ccc(Cl)cc12)N1CCN(Cc2ccc3c(c2)OCO3)CC1	2.7	0.7	-2.0	i	2.7	2	x
O=C(Cn1c(-c2ccccn2)nc2ccccc21)N/N=C/c1cccnc1	x	x	2.2	i	-5.4	0	x
Cc1cc(C)c(NC2=CC(=O)CC(C)(C)C2)c(C#N)c1	2.6	0.72	-4.8	x	-2.2	6	5
CCOC(=O)c1ccc(NC(=S)N(Cc2cccnc2)Cc2ccco2)cc1	2.0	0.68	1.7	i	-1.6	-6	x
CCN(c1ccccc1)S(=O)(=O)c1ccc(OC)c(OC)c1	2.2	0.76	4.7	i	-2.3	4	-4
O=C(Nc1ccc2c(c1)OCO2)C1CCN(C(=O)c2ccc([N+](=O)[O-])cc2)CC1	6.0	0.66	-3.9	i	-0.5	-3	-28
CCOC(=O)c1ccccc1NC(=S)N1CCN(C(=O)c2ccco2)CC1	1.6	0.65	4.6	i	-5.8	-5	-23
O=C(/C=C/Nc1ccc(S(=O)(=O)Nc2ncccn2)cc1)c1ccc2ccccc2c1	-4.3	0.66	-0.5	i	-3.7	7	-2
CCCCC(=O)NCc1ccc2c(c1)cc(C)n2C	1.0	0.66	-5.1	x	-4.6	3	-9
COc1ccc(Cn2c(-c3ccc(OC)c(O)c3)nc3ccccc32)cc1O	2.8	0.65	-7.1	i	6.5	-5	15
O=C(COC(=O)c1cnccn1)NCc1ccccc1	0.5	0.68	4.8	x	0.9	1	-4
COc1ccccc1N(CC(=O)NC(C)(C)C)C(=O)c1ccc(Cl)nc1	1.5	0.71	2.0	i	0.5	-1	-19
Cc1ccc(NC(=O)c2ccccc2-c2cc(C)no2)cc1	1.5	0.7	2.6	i	3.0	-3	x
Nc1ccccc1OCCOCCOc1ccccc1N	x	x	5.9	x	0.5	1	98*
COc1cccc(/C=N/Nc2ccnc(=O)[nH]2)c1O	x	x	4.4	i	5.0	-11	14
Cc1cc(-c2cccs2)c(C#N)c(=S)[nH]1	5.6	0.6	8.5	i	-4.8	-6	-11
Cc1cc(C)c(C(N)=O)c(SCC(=O)c2cc(C)c(C)cc2C)n1	-3.2	0.69	-1.4	x	1.2	-3	6
